# Screening results: PubChem, National Center for Advancing Translational Sciences (NCATS)
# Bst PK mod = Pyruvate Kinase; Potency, µM; 51,000 compounds, 1.2% hits; AID 361, 2006; partly purified Bacillus stearothermophilus pyruvate kinase, luminescence ATP production; ribose 5-phosphate activator present at AC10; in the data active means potency below about 11 µM; inconclusive means mostly about 12 µM to 25 µM; inactive means weaker than that;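 the screen sought inhibitors and activators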;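 also: potency is read from the fitted curve at half-maximal effect; scaled between full activation by ribose 5 phosphate and full inhibition by luteolin; about four in five hits inhibit and the cells do not say which; series up to 57 µM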
# YjeE inh = qHTS Assay for Inhibitors of YjeE; 71,000 compounds, 0.05% hits; purified YjeE, fluorescence polarisation of a bound ADP probe; tRNA threonylcarbamoyladenosine biosynthesis protein TsaE (Escherichia coli (strain …; Potency, µM; active = well fitted falling curve; inconclusive = weaker or top-dose-only fall, or a rising curve; inactive = flat or poorly fitted curve;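 also: top concentration of the series not given in the record; excess ADP was the control for the full effect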
#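 Fluorescence polarization of a BODIPY Texas Red–ADP probe (2 uM) bound to purified YjeE (10 uM) was read after 15 min room-temperature incubation with compounds. Loss of polarization marks inhibitors; ADP serves as titrated control.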
# * marks the source's active call; other numbers are inactive results; i = inactive; . = no result given. Only part of the results is shown; rates above refer to the full screens.
YjeE inh,Bst PK mod,mol
i,.,O=C(c1ccco1)N1CCC2(CCCN(c3ccncc3)C2)CC1
i,>57,CC(C)COC(=O)C1C(=O)CC(C)(O)C(C(=O)OCC(C)C)C1c1cccnc1 (configuration not stated)
i,i,Cc1occc1C(=O)Nc1ccc2c(c1)OCCO2
i,.,CCNc1ncc2nc(-c3cc(F)cc(F)c3)c(=O)n(CCC#N)c2n1
i,.,O=C(NCCCNCc1ccccc1)c1ccc(/C=N/O)nc1
i,>57,Cc1ccc(C)c(NC(=O)CNS(=O)(=O)c2ccccc2)c1
i,>57,O=C(Cn1nc(-c2ccc(Cl)cc2)ccc1=O)NCCCN1CCN(Cc2ccccc2)CC1
i,>57,CC(C)N1CC(O)=C(c2ccccc2)C1=N
i,>57,CCOC(=O)C1=C(c2ccccc2)NC(SC)=C(C#N)C1c1ccco1 (configuration not stated)
i,>57,COc1cc(OC)c(NC(=O)CCNS(=O)(=O)c2cc(Br)cnc2N)cc1Cl

# 3 entries out of the list, sorted by molar mass, rising:
YjeE inh,Bst PK mod,mol
i,.,CCNc1ncc2nc(-c3cc(F)cc(F)c3)c(=O)n(CCC#N)c2n1
i,>57,CCOC(=O)C1=C(c2ccccc2)NC(SC)=C(C#N)C1c1ccco1 (configuration not stated)
i,>57,CC(C)COC(=O)C1C(=O)CC(C)(O)C(C(=O)OCC(C)C)C1c1cccnc1 (configuration not stated)

# Following part.
YjeE inh,Bst PK mod,mol
i,>57,CCOC(=O)CNC(=O)CN1CCCN(S(=O)(=O)c2ccc(Br)s2)CC1
i,.,O=C(NCc1ccco1)C12CC3CC(C1)CC(C(=O)NCc1ccco1)(C3)C2
i,>57,Cc1ccccc1CN1CCN(CC(=O)NCc2ccc3c(c2)OCO3)C1=O
i,>57,O=S(=O)(c1ccc2nc(COc3ccccc3)[nH]c2c1)N1CCOCC1
i,>57,CCC(C)(C)n1nnnc1C(c1cc2cc3c(cc2[nH]c1=O)OCO3)N1CCN(C)CC1 (configuration not stated)
i,.,CCOC(=O)c1cc(-c2ccc(C)cc2)n(CC(=O)NCc2ccco2)c1C
i,.,COC(=O)[C@@H]1C[C@H]1[C@@H](NS(=O)(=O)c1ccccc1)c1ccccc1
i,.,c1cncc(C2Nc3ccccc3-c3nc4ccccc4n32)c1 (configuration not stated)
i,>57,CCn1c(=O)c(=O)[nH]c2cc(C(=O)Nc3ccc(S(=O)(=O)N4CCCC4)cc3)ccc21
i,.,C[C@@H]1O[C@@H](O)[C@@H](O)[C@H](O)[C@H]1O

# The closing 4 compounds of the part before come first, to join the parts:
YjeE inh,Bst PK mod,mol
i,.,COC(=O)[C@@H]1C[C@H]1[C@@H](NS(=O)(=O)c1ccccc1)c1ccccc1
i,.,c1cncc(C2Nc3ccccc3-c3nc4ccccc4n32)c1 (configuration not stated)
i,>57,CCn1c(=O)c(=O)[nH]c2cc(C(=O)Nc3ccc(S(=O)(=O)N4CCCC4)cc3)ccc21
i,.,C[C@@H]1O[C@@H](O)[C@@H](O)[C@H](O)[C@H]1O
i,>57,COc1cccc(-c2cc(C(=O)Nc3c(C)nn(Cc4ccccc4)c3C)no2)c1
i,.,CC[C@H](CN(C)C)C(=O)c1ccco1
i,>57,COCCCNC(=O)CN(c1cccc(Cl)c1C)S(C)(=O)=O
i,>57,Cc1nnc(NC(=O)CN2C(=O)c3ccccc3S2(=O)=O)s1
i,.,CCn1c(SCC(=O)c2ccccc2)nnc1-c1cnccn1
i,.,Cn1cccc1C(=O)N1CCC2(CCCN(C(=O)Nc3cccc(C#N)c3)C2)CC1
i,>57,CC(=O)c1ccccc1OCC(O)CN1CCN(C(c2ccccc2)c2ccccc2)CC1 (configuration not stated)
i,>57,Cc1ccc(Nc2nc(N)nc(CN3CCN(c4ccccc4)CC3)n2)cc1Cl
i,>57,CCOC(=O)c1c(C)c(C(=O)Nc2ccccc2)c(C)n1CC
i,>57,O=C(NC1CCCCC1)C(c1ccncc1)N(CC1CCCO1)C(=O)C(F)(F)F (configuration not stated)
i,>57,O=S(=O)(NCc1ccncc1)c1ccc(S(=O)(=O)NCC2CCCO2)cc1 (configuration not stated)
i,>57,O=C1CC(C(=O)N(CC2CCCO2)C(C(=O)NC2CCCCC2)c2ccncc2)CS1 (configuration not stated)
i,.,COc1ccc(N=[N+]([O-])c2ccc(OC)cc2)cc1
i,.,c1ccc(-c2noc(-c3ccncc3)n2)nc1
i,.,Brc1ccc(-c2nc(-c3cccnc3)no2)o1
i,0.291*,Cc1nc2c(ccc3nc(NC(=O)c4ccc5c(c4)OCCO5)sc32)s1
i,>57,CCCC1(C(=O)OC)NC(c2ccco2)C2C(=O)N(c3ccc(C)cc3)C(=O)C21 (configuration not stated)
i,>57,CCc1ccccc1N(CC(=O)O)S(C)(=O)=O
i,>57,COc1ccccc1N1CCN(CC(=O)Nc2cc(C)nn2-c2nc(C)cc(C)n2)CC1
.,>25.6,Cc1ccc2[nH]c3c(c2c1)CN(C(=O)CN1CCCc2ccccc21)CC3
i,>57,COc1ccc(N2CCN(C(=O)Cn3c(=O)[nH]c4ccsc4c3=O)CC2)cc1
i,.,CC[C@@H](CO)Nc1nc(NCc2ccccc2)c2ncn(C(C)C)c2n1
i,.,C[C@@]12CC[C@@H]3[C@H](CCC4=CC(=O)CC[C@]43C)[C@@H]1CC[C@@H]2C(=O)COS(=O)(=O)c1ccc(Br)cc1
i,>57,O=c1nc(N2CCOCC2)ccn1Cc1ccc(Br)cc1
i,>57,Cc1ccc(S(=O)(=O)N2CCCCC2)cc1C(=O)c1nccn1C
i,>57,c1cc(-c2nnc3n2CCC3)[nH]n1
i,>57,Cc1cccc2sc(NC(=O)CN(C)S(=O)(=O)c3cccs3)nc12
i,>57,Nc1c(C(=O)NCc2ccco2)sc2nc3c(cc12)C(=O)CCC3
i,>57,COCCN1C(=O)N(c2cccc(C)c2)C(=O)C1CC(=O)Nc1ccc(F)cc1 (configuration not stated)
i,.,Oc1ccccc1C(Sc1nc2ccccc2s1)Sc1nc2ccccc2s1
i,.,COc1ccccc1CCn1c(=O)c(CCc2ccccc2)nc2cncnc21
i,.,CCCN1CC23C=CC(O2)C(C(=O)O)C3C1=O (configuration not stated)
i,>57,CCn1c(SCC(=O)Nc2ccc3c(c2)c2ccccc2n3CC)nnc1-c1cnccn1
i,>57,Cc1ccc(N(C(=O)C2CCCO2)C2C=CS(=O)(=O)C2)cc1Cl (configuration not stated)
i,.,N[C@@H](CCCCO)C(=O)O
i,.,CCCCn1c(CN2CCN(c3ccccc3)CC2)nc2c1c(=O)n(C)c(=O)n2C
i,>57,CCCc1cc(=O)[nH]c(SCc2ccc(C#N)cc2)n1
i,.,CN(C)C(=O)c1ccc(-c2cncnc2NC2CCNCC2)cc1
i,>57,COCCn1c(SCC(=O)N2CCCc3ccccc32)nnc1-c1ccco1
i,>57,O=C(CCn1c(=O)sc2ccccc21)NCc1cccs1
i,>57,COc1ccc(-c2cc(-n3c(C(F)(F)F)nc4ccccc43)n(CCC#N)n2)cc1
i,>57,O=C(Cc1coc2cc3c(cc12)CCC3)OCc1cc(=O)n2c(n1)sc1ccccc12
i,>57,CCc1c(C)nc(SC)n(CC#N)c1=O
i,.,Cc1nc2ccc3nc(NC(=O)C4COc5ccccc5O4)sc3c2s1 (configuration not stated)
i,>57,CCOCCCNCC(=O)NC1(C)C2CCC(C2)C1(C)C (configuration not stated)
i,.,CC(C)(C)c1ccc(O)c(CN(Cc2cc(C(C)(C)C)ccc2O)c2ccccc2)c1
i,>57,CCOc1ccccc1C(=O)Nc1ccc2nc(N3CCN(c4ncccn4)CC3)cc(C)c2c1
i,>57,CCn1c(SCC(=O)c2ccc(Cl)cc2)nnc1C(C)C
i,>57,O=C(Nc1cc(C(F)(F)F)ccc1N1CCOCC1)c1ccc2ccccc2n1
i,.,CCn1c(=O)c2c(n3cnnc13)-c1ccccc1CC21CCCCC1

# Single records (already shown).
# Record of CCOc1ccccc1C(=O)Nc1ccc2nc(N3CCN(c4ncccn4)CC3)cc(C)c2c1 = YjeE inh = i; Bst PK mod = >57
# Record of CCn1c(SCC(=O)c2ccc(Cl)cc2)nnc1C(C)C = YjeE inh = i; Bst PK mod = >57

# Next results follow.
YjeE inh,Bst PK mod,mol
.,>11.4,COc1cccc(C(=O)c2sc(NC(C)C)nc2N)c1
i,.,COC(=O)[C@@]1(Cc2ccc(F)cc2)[C@H]2c3cc(C(=O)N(C)C)n(Cc4c(CO)[nH]cc(C)c4=O)c3C[C@H]2CN1C(=O)c1ccccc1
i,>11.4,COc1cc2nc(N3CCN(C(=O)c4ccco4)CC3)nc(N)c2cc1OC
i,.,O=C(NC1CCCC1)C1c2ccccc2C(=O)N1CCCN1CCOCC1 (configuration not stated)
i,.,Cc1cc(=O)n2nc(-c3ccccc3)sc2n1
i,>57,Cc1c2c(nc3c(C(=O)NC4CC4)cnn13)CCCC2
i,.,Cc1cc(OCCN2CCCC2)ccc1C(C)C
i,>57,CCOC(=O)C1CCN(C(=O)CSCCSCC(=O)N2CCC(C(=O)OCC)CC2)CC1
i,>57,Cc1ccc(S(=O)(=O)Nc2cccc(-c3cn4ccsc4n3)c2)cc1
i,.,CCOc1ccc(OCC)c(NC(=O)CNS(=O)(=O)c2cccs2)c1

# Brought forward from above: 3 compounds, then new ones.
YjeE inh,Bst PK mod,mol
i,>57,CCOC(=O)C1CCN(C(=O)CSCCSCC(=O)N2CCC(C(=O)OCC)CC2)CC1
i,>57,Cc1ccc(S(=O)(=O)Nc2cccc(-c3cn4ccsc4n3)c2)cc1
i,.,CCOc1ccc(OCC)c(NC(=O)CNS(=O)(=O)c2cccs2)c1
i,.,CCCCc1cc(=O)oc2cc(OCC(=O)N(CC)CC)c(Cl)cc12
i,>57,CCc1cc(=O)oc2cc(OCC(=O)N3CCc4ccccc43)ccc12
i,.,CC(=O)N1CCC2(CCN(Cc3ccc(C#N)cc3)CC2)CC1
i,>57,CCn1c(Cc2ccc(OC)cc2)nnc1SCC(=O)Nc1nc2ccccc2s1
i,>57,CC1CN(C(=O)Cc2ccc(-c3ccccc3)cc2)CC(C)O1 (configuration not stated)
i,>57,COc1ccc(CCNC(=O)CN2CCCc3ccccc32)cc1OC
i,>57,Cc1ccccc1Cn1nc(C)c(NC(=O)c2noc3c2CC(C(C)(C)C)CC3)c1C (configuration not stated)
i,>57,CC(C)CCNC(=O)CN(Cc1ccc2c(c1)OCO2)C(=O)CCC(=O)Nc1ccccn1
i,>57,Cc1ccccc1NC(=O)Cn1c(=O)n(C)c2ccccc21
i,.,NNC(=O)CNc1cccc(Br)c1
i,>57,Cc1ccc(-c2nc(=S)c3c(n2CCN2CCOCC2)CC(C)(C)OC3)cc1
i,>57,COc1ccc(NCc2nnc(SCC(=O)Nc3cccc(C)c3)o2)cc1
i,>57,CCOC(=O)NC1(C(F)(F)F)N=C(c2ccccc2)NC1=O (configuration not stated)
i,>11.4,Fc1cccc(C2CC(c3cccc(Br)c3)Nc3nnnn32)c1 (configuration not stated)
i,>57,O=C(C1=C(O)C(=O)N(CCN2CCOCC2)C1c1ccccc1)c1cccs1 (configuration not stated)
i,.,COc1ccccc1-c1c(C)nn2c(N3CCCCCC3)cc(C)nc12
i,>57,CC(=O)Nc1ccc(S(=O)(=O)Nc2ccc(S(=O)(=O)N3CCCCCC3)cc2)cc1
i,.,COC(=O)[C@@]1(Cc2ccc(F)cc2)[C@H]2c3cc(C(=O)N4CCCC4)n(Cc4ccccn4)c3C[C@H]2CN1C(=O)c1ccccc1
i,>57,CCc1nc2ccccc2n(CC)c1=O
i,.,CCc1ccc(NC(=O)Cn2c(=O)oc3cc(S(=O)(=O)N4CCOCC4)ccc32)cc1
i,>57,COc1ccc(C(O)c2coc3ccc(O)c(CN(C)C)c23)cc1 (configuration not stated)
i,.,COC(=O)CS
i,>57,C=CCn1c(SCc2nc3ccccc3c(=O)[nH]2)nnc1-c1cc2cc(Cl)ccc2o1
i,>57,COc1ccc(NC(=O)c2ccc(COc3ccccc3Br)o2)cc1OC
i,.,COC(=O)N1CCC2(CC1)CN(C(=O)Nc1cccc(F)c1)C2
i,.,COc1ccc(-c2nc(CS(=O)CC(=O)NCc3ccc4c(c3)OCO4)c(C)o2)cc1 (configuration not stated)
i,>57,Cc1cccnc1NC(=O)c1ccc2nc(N)sc2c1
i,>57,CC1CN=C(c2cccn2Cc2ccc(F)cc2Cl)O1 (configuration not stated)
i,.,CCCn1c(C)nc2c(N(CCN(CC)CC)CCN(CC)CC)nc(C)nc21
i,>57,CCOC(=O)CN(C(=O)CSc1nnc(COc2ccc(OC)cc2)n1C)c1ccccc1
i,.,COc1ccc(N2C(=O)C3CCCN3C2c2cccs2)cc1 (configuration not stated)
i,>57,C=CCn1c(N2CCCC2)nc2c1c(=O)[nH]c(=O)n2C
i,>57,O=C(C1CCN(S(=O)(=O)c2ccc(-n3cnnn3)cc2)CC1)N1CCN(c2ccccc2)CC1
i,.,COc1ccc(-n2c(=O)c(-c3ccc(F)c(F)c3)nc3cncnc32)cc1
i,.,Cc1csc2nc(=O)c3ccccc3n12
i,>57,CC(C)CCN(C)C1CCN(S(=O)(=O)c2cccc(C(F)(F)F)c2)CC1
i,.,CN(C)[C@H]1C(=O)C(C(=O)NCN2CCCC2)=C(O)[C@]2(O)C(=O)C3=C(O)c4c(O)cccc4[C@](C)(O)[C@H]3C[C@H]12
i,>57,CCOC(=O)CSc1nnc(CNC(=O)c2ccc(OC)cc2)n1-c1ccc(OC)cc1
i,>57,CCN(CC)S(=O)(=O)c1ccc2nnn(OCC(=O)Nc3cccc(C#N)c3)c2c1
i,>57,O=C(CNS(=O)(=O)c1ccc(C(=O)N2CCCCC2)cc1)N1CCCCC1
